From PubChem
NS1 inh: blocks influenza NS1 protein function. S. cerevisiae slowed by influenza A NS1, growth recovery by OD600. Potency, µM (doses to about 46.1 µM), for inactives: at the top dose activity, positive = more growth. 270,000 tested, 0.4% active. AID 2326; active means well fitted rising curve with a large enough effect; inconclusive means small, poorly fitted or top-dose-only effect; inactive means no such curve, though single readings can be large or run the other way; also: nearly all actives have a fitted effect of over 50% in size
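Growth recovery, yeast-based: influenza A NS1 expressed in S. cerevisiae causes slow growth, and suppressors are detected by OD600. The parent strain without NS1 is used as positive control.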
MARV entry inh: inhibitors of Marburg virus binding or cell entry | Marburg virus pseudotyped entry inhibition, cell reporter; control for the full effect not named in the record; about a third of the inactives were read at about 46 µM | Potency, µM (top dose mostly 37.8 µM), for inactives: top-dose activity change, negative = inhibition, hits mostly inhibitors | 300,000 tested, 1.8% active | AID 540276; active = well fitted inhibition curve with a large enough effect; inconclusive = small, poorly fitted or top-dose-only effect, or effect the other way; inactive = flat fitted curve, though single readings scatter; tested in HEK293 cells; about a fifth of its hits are not listed in these tables; also: % is scaled to controls: 0 for no effect and ±100 for the full control effect; luciferase read-out
SARS PLpro yeast: blocks SARS-CoV papain-like protease in a yeast assay | S. cerevisiae expressing SARS-CoV PLpro, growth rescue; control for the full effect not named in the record | Potency, µM (top dose mostly 32.9 µM), without a hit: at the top dose activity, positive = growth rescue | 330,000 tested, 0.19% active; active means well fitted rising curve with a large enough effect; inconclusive means small, poorly fitted or top-dose-only effect; inactive means no such curve, though single readings can be large or run the other way; also: 0% is about no effect; nearly all actives have a fitted effect of over 55% in size; growth read by luminescence after 48 h
StopGo reporter: FMDV 2A StopGo reporter, luciferase signal; Potency, µM (highest dose often 57.9 µM), for inactives: at the top dose signal change, negative = less light; 410,000 tested, 1.2% active; human cells with a luciferase reporter of 2A StopGo recoding; control for the full effect not named in the record; active = well fitted falling curve with a large enough effect; inconclusive = small, poorly fitted or top-dose-only effect; inactive = no such curve, though single readings can be large or run the other way; tested in HEK293T cells; also: % is scaled to controls: 0 for no effect and ±100 for the full control effect; nearly all actives have a fitted effect of over 45% in size; luciferase light after 4 h
RE007 growth inh: less growth of the S. pombe RE007 Vpr strain | 360,000 tested, 0.21% active | S. pombe RE007 Vpr strain, BacTiter-Glo ATP luminescence, 24 h; control for the full effect not named in the record | AID 651644 | Potency, µM (top dose mostly 92.2 µM), for the others: top-dose activity change, negative = less growth; active = well fitted falling curve with a large enough effect; inconclusive = small, poorly fitted or top-dose-only effect; inactive = no such curve, though single readings can be large or run the other way;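 also: % is scaled to controls: 0 for no effect and ±100 for the full control effect; nearly all actives have a fitted effect of over 50% in size; the assay follows cell death caused by Vpr and the record does not say whether a fall means rescue or toxicity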
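Fission yeast RE007 carrying one integrated HIV-1 vpr copy, seeded at OD 0.01 in PMG+AL medium with 23 nL pinned compound. Grown 24 h at 30 degrees; viability read by BacTiter-Glo luminescence after 5 min.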
Cruzain inh noDet: cruzain (T. cruzi) inhibition without detergent; P25779; purified cruzain, Z-FR-AMC fluorescence, no detergent; Potency, µM, for inactives: max response, negative = inhibition, usual class: inhibitors; 200,000 tested, 2.3% active; AID 1476;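 also: plate controls were enzyme without inhibitor for no effect and buffer without enzyme for full effect; nearly all actives have a fitted effect of over 40% in size; top concentration of the series not given in the record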
Target sequence (P25779 123-467 limits assumed): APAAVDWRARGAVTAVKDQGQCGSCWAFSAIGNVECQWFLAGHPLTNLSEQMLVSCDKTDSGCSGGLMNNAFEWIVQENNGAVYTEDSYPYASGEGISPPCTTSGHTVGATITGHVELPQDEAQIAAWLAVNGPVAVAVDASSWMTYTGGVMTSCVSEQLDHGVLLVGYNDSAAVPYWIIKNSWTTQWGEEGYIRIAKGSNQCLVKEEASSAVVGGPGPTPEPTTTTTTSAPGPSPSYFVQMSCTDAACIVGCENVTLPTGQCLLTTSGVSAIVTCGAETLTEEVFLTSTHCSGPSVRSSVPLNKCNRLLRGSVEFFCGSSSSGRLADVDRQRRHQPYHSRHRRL
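Detergent-free condition (0.00005% Triton X-100) in acetate buffer pH 5.5 with DTT. 1.5 nM enzyme and compound were pre-mixed 15 min, then 2 uM Z-FR-AMC substrate added; reaction progress from fluorescence change between first and third reads (60 s).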
LASV entry inh: Lassa virus entry inhibition | Lassa virus pseudotype entry inhibition, cell reporter; control for the full effect not named in the record | Potency, µM (series often up to 37.9 µM), for the others: top-dose activity change, negative = inhibition, actives largely listed as inhibitors | 300,000 tested, 1.2% active; active means well fitted inhibition curve with a large enough effect; inconclusive means small, poorly fitted or top-dose-only effect, or effect the other way; inactive means flat fitted curve, though single readings scatter; tested in HEK293 cells; also: % is scaled to controls: 0 for no effect and ±100 for the full control effect; nearly all actives have a fitted effect of over 50% in size; luciferase read-out
Cruzain inh Det: cruzain (T. cruzi) inhibition with detergent | 200,000 tested, 0.43% active | Potency, µM, for inactives: max response, negative = inhibition, hits mostly inhibitors | purified cruzain, Z-FR-AMC fluorescence, 0.01% Triton | P25779;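 also: plate controls were neutral wells for no effect and buffer without enzyme for full effect; nearly all actives have a fitted effect of over 40% in size; top concentration of the series not given in the record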
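Cysteine protease activity tested under reducing, mildly acidic conditions (100 mM sodium acetate pH 5.5, 5 mM DTT) plus 0.01% Triton X-100. Cruzain 1.5 nM; substrate Z-FR-AMC 2 uM; 15 min compound preincubation at room temperature.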
The depositor's hits bear a star; ? = inconclusive; . = not tested or not shown; & = joins results of further samples; [ ] = another dose, or the depositor's remark. Unless noted, calls follow the shape of the dose curve; as a rule, active = well fitted curve in the direction sought with a large enough effect; inconclusive = small, poorly fitted or top-dose-only effect, or another doubt; inactive = no such curve, though single readings can be large; an effect the other way counts as inactive or inconclusive. Potency is read from the fitted curve at half-maximal effect.

SMILES	NS1 inh	MARV entry inh	SARS PLpro yeast	StopGo reporter	RE007 growth inh	Cruzain inh noDet	LASV entry inh	Cruzain inh Det
CCOC(=O)c1sc(NC(=S)NC(=O)C2CC2)cc1C	10.7%	2.3%	14.0%	21.1%	5.6%	-5.3%	-0.5%	3.9%
CC1CCc2cc(F)ccc2N1C(=O)CCC(=O)O (centres undefined)	-1.1%	3.7%	-0.7%	-12.8%	1.5%	0.3%	6.1%	4.4%
CC1CCN(C(=O)CCN2C(=O)C3C4C=CC(C4)C3C2=O)CC1 (centres undefined)	3.5%	.	-11.1%	-5.1%	0.5%	.	.	.
COc1ccc2nccc(C(N)=O)c2c1	-2.7%	.	-0.3%	-18.3%	-5.7%	.	.	.
COc1ccc(CCNC(=O)C2CCCN(S(=O)(=O)c3cnc[nH]3)C2)cc1OC (centres undefined)	?	.	8.2%	-17.4%	-11.3%	2.7%	.	5.8%
COc1ccc(C(=O)NCc2oc(-c3ccccc3)cc2C(=O)O)cc1	0.8%[9.22 µM]	2.4%	0.6%	7.1%	0.1%	-23.1%	-1.0%	-2.4%
COc1ccc(-c2noc(CSc3nc(-c4ccccc4)cc(=O)[nH]3)n2)cc1OC	?	0.8%	10.6%	?	1.2%	14.2%	-3.2%	-1.3%
O=C(COC(=O)C1CCN(S(=O)(=O)c2ccc(Cl)c(C(F)(F)F)c2)CC1)NCc1ccco1	.	?	-0.2%	-7.5%	4.7%	.	5.3%	.
CCCSc1nc2c(c(=O)[nH]c(=O)n2C)n1CCc1ccccc1	-3.1%	-3.7%&-3.7%	-1.7%	-19.1%	7.8%	-17.7%	-17.6%	2.5%
C[C@]12c3[nH]c4ccc(Cl)cc4c3CCN1C(=O)[C@@H](CC(=O)NCc1ccco1)C[C@@H]2C(=O)N1CCCCC1	.	-1.5%	11.2%	-27.6%	-6.9%	.	.	.
NC(=O)COC(=O)c1cc(S(=O)(=O)N2CCN(c3ccccc3)CC2)ccc1Cl	.	7.7%[46.1 µM]	1.5%	-16.6%	-13.6%	.	-24.6%	.
Cc1ccc(NC(=O)COC(=O)c2cccc3c2C(=O)c2ccccc2C3=O)c(C)c1	-9.2%	?	12.8%	-3.9%	.	4.4%	-24.9%	-6.6%
COc1ccccc1NC(=S)NCc1ccccn1	9.1%	?	-6.7%	20.3%	-20.2%	6.7%	0.0%	0.0%
CC(=O)c1cc(-c2ccccc2)n(CCC(=O)Nc2ccc(C)cc2C)c1C	.	.	.	0.0%	.	-14.6%	10.4%[46.1 µM]	-0.2%
Cc1ccc(-c2noc(=O)n2CC(=O)c2ccc(Cl)cc2)cc1	0.3%	.	0.9%	11.4%	1.4%	.	.	.
C#CCOCCOCCOCCNc1nc(N2CCN(C(=O)[C@H](CCC(=O)O)n3cc(C(N)Cc4ccc(O)cc4)nn3)CC2)nc(N2CCN(C(=O)[C@H](CCC(=O)O)n3cc(C(N)CC(C)C)nn3)CC2)n1 (some centres undefined)	2.3%	.	-0.5%	0.0%	10.4%	.	.	.
O=C(O)CC1(CC(=O)Nc2ccc(C(F)(F)F)cc2)CCCC1	5.7%	14.1%[46.1 µM]	-0.3%	-8.4%	2.3%	.	1.4%[46.1 µM]	.
Fc1ccc(Nc2nnc(C(F)(F)F)s2)cc1Cl	-79.3%	?	-6.6%	0.0%	?	.	?	.
O=C(/C=C/c1ccc(OC(F)F)cc1)Nc1cccc(S(=O)(=O)NC2=NCCCCC2)c1	2.0%	?	-1.6%	?	11.6%	.	10µM*	.
Cc1ccc(NC(=O)NNC(=O)c2snnc2C)cc1	.	0.2%	0.3%	0.0%	1.7%	.	15.1%	.
COc1cc(/C=c2\sc3n(c2=O)C(c2ccccc2)C(c2ccccc2)=NN=3)ccc1O (centres undefined)	2.7%	-20.1%	17.9%	-15.7%	14.8%	15.8µM*	?	5.4%
CCC(N)C12CC3CC(CC(O)(C3)C1)C2 (centres undefined)	5.6%	-22.0%	16.8%	-3.8%	10.6%	-4.2%	-3.3%	0.7%
CN(C)S(=O)(=O)N1CCN(c2cc(Cl)ccc2Cl)CC1	-50.0%	-1.4%[46.1 µM]	-0.8%	?	-23.2%	6.8%	-3.9%	-8.4%
CCC(C)NC(=O)CNC(=O)Cn1c(C)cc2ccccc2c1=O (centres undefined)	-0.9%	-8.8%	-0.1%	5.8%	-4.6%	3.6%	3.4%	1.5%
COc1ccc(/C=C/C(=O)NC(=S)NNC(=O)Cc2cccs2)cc1OC	5.9%	?	-0.3%	-13.3%	7.7%	-45.2%	5.4%	0.8%
CCOC(=O)C1CCN(C(=O)c2nn(-c3ccc(OC)c(Cl)c3)c(=O)c3c2c2ccccc2n3C)CC1	.	-3.5%[46.1 µM]	.	-23.2%	.	-0.7%	?	-3.8%
O=C(Nc1ccccc1F)n1ncc2cc(Cl)ccc21	-6.0%	.	-1.8%	30.6%[activator]	-8.5%	.	.	.
Cc1cc(Br)c(Cl)cc1NC(=O)CN1C(=O)C2C3CC(c4ccccc4)C(C3)C2C1=O (centres undefined)	21.9%	?	-24.0%	-27.8%	26.0%	12.6µM*	?	-6.5%
CCN(CCNC(=O)C1CCCN(c2ncnc3c2nc2n3CCCCC2)C1)Cc1ccccc1 (centres undefined)	0.8%	.	2.2%	-22.8%	-15.8%	.	.	.
O=C1C2CC=CCC2C(=O)N1c1ccc(NCCc2ccc(Cl)cc2)c([N+](=O)[O-])c1 (centres undefined)	1.7%	?	-5.9%	-23.6%	10.2%	?	0.7%	-4.2%

Among those listed so far, these contain a COOH group:
SMILES	NS1 inh	MARV entry inh	SARS PLpro yeast	StopGo reporter	RE007 growth inh	Cruzain inh noDet	LASV entry inh	Cruzain inh Det
CC1CCc2cc(F)ccc2N1C(=O)CCC(=O)O (centres undefined)	-1.1%	3.7%	-0.7%	-12.8%	1.5%	0.3%	6.1%	4.4%
COc1ccc(C(=O)NCc2oc(-c3ccccc3)cc2C(=O)O)cc1	0.8%[9.22 µM]	2.4%	0.6%	7.1%	0.1%	-23.1%	-1.0%	-2.4%
C#CCOCCOCCOCCNc1nc(N2CCN(C(=O)[C@H](CCC(=O)O)n3cc(C(N)Cc4ccc(O)cc4)nn3)CC2)nc(N2CCN(C(=O)[C@H](CCC(=O)O)n3cc(C(N)CC(C)C)nn3)CC2)n1 (some centres undefined)	2.3%	.	-0.5%	0.0%	10.4%	.	.	.
O=C(O)CC1(CC(=O)Nc2ccc(C(F)(F)F)cc2)CCCC1	5.7%	14.1%[46.1 µM]	-0.3%	-8.4%	2.3%	.	1.4%[46.1 µM]	.

More entries follow:
SMILES	NS1 inh	MARV entry inh	SARS PLpro yeast	StopGo reporter	RE007 growth inh	Cruzain inh noDet	LASV entry inh	Cruzain inh Det
CCO[C@@H]1OC(C(=O)O)=C[C@H](c2csc3ccccc23)[C@H]1CCCO	2.4%	.	0.1%	-3.8%	-2.9%	.	.	.
CC(C)(C)c1ccc(C(=O)CCC(=O)OCC(=O)NCCc2ccc(S(N)(=O)=O)cc2)cc1	.	?	-7.2%	?	22.6%	.	-23.3%	.
Cc1ccccc1CNC(=O)C(=O)NCC1CCCN1S(=O)(=O)c1cccs1 (centres undefined)	.	-1.2%	-4.5%	12.4%	0.8%	.	-6.6%	.
CN1CCN(C(=O)Cc2ccccc2)CC1	11.0%	25.8%	-0.1%	4.1%	4.5%	.	5.6%	.
Cc1cccc(N2CCN(c3ncnc4c3c(-c3ccccc3)cn4-c3ccccc3)CC2C)c1 (centres undefined)	.	.	.	?	.	-13.1%	0.5%[46.1 µM]	5.5%
CCOc1ccccc1CNC(=O)c1ccc(NC(=O)N2CCSc3ncccc32)cc1	.	.	.	?	.	-0.5%	-24.3%[46.1 µM]	-8.5%
O=C(N1CCN(c2ccccc2F)CC1)C12CC3CC(CC(C3)C1)C2	-66.2%	-25.7%	-12.8%	?	11.8%	-11.8%	-20.9%	-1.6%
Cc1ccc(-n2nc(C(=O)NCc3ccc(C)o3)c3c4ccccc4n(C)c3c2=O)cc1	15.8%	3.6%[46.1 µM]	7.4%	-17.7%	-11.0%	?	?	-2.2%
CNS(=O)(=O)c1cccc(C(=O)OCC(=O)N2CC(C)OC(C)C2)c1 (centres undefined)	-10.4%	-3.0%[46.1 µM]	1.4%	17.4%	13.6%	.	11.7%[46.1 µM]	.
CC(C)C[C@H](NC(=O)[C@@H]1CCCN1C(=O)[C@@H](N)Cc1ccc(O)cc1)C(=O)NCC(N)=O	5.0%	22.8%	1.1%	-25.4%	-7.1%[18.4 µM]	9.1%	3.6%	-0.6%
COc1ccc(C)cc1NC(=O)c1cc2ccccn2n1	.	.	.	40.8%[activator]	.	-23.3%	19.9%[46.1 µM]	-3.6%
Cc1cc(C)cc(NC(=O)Cn2c(=O)n(Cc3ccco3)c(=O)c3oc4ccccc4c32)c1	.	.	.	-11.9%	.	-23.4%	6.8%[46.1 µM]	-6.3%
COc1cc(C(=O)NNC(=O)/C=C/c2ccccc2)cc(OC)c1OC	.	-11.9%[46.1 µM]	-2.9%	-28.5%	-5.4%	.	-27.9%[46.1 µM]	.
COC(=O)c1cn(C(=O)c2ccccc2Cl)c2ccccc12	.	?	-0.9%	-22.6%	-4.3%	.	?	.
COc1cc(OC)cc(C(=O)Nc2ccccc2C(=O)NC2CC2)c1	.	?	-0.7%	-17.9%	8.3%	.	-21.1%	.
O=C1CN(c2ccc(Cl)cc2)C2(CCCCC2)S1	0.0%	-18.8%	24.3%	-23.0%	0.7%	-10.4%	-23.7%	-1.0%
Cc1cc(S(=O)(=O)NCC(C)C)ccc1OCC(=O)NCC1CCCO1 (centres undefined)	-16.9%	1.2%	0.4%	47.1%[activator]	.	-0.3%	9.7%	-1.9%
COc1ccccc1C(=O)Nc1ccnn1C1CCN(C(=O)c2ccoc2C)CC1	1.5%	-3.9%[46.1 µM]	0.8%	5.7%	6.0%	.	9.1%[46.1 µM]	.
